ID4 SMM: binds human ID4 protein on microarray; P47928; small molecule microarray, Flag-ID4 binding, fluorescence F/B; calls only; AID 624137; 1.2% of 31,000 active;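 active means spot signal over background at p below 0.07 in all four prints; compounds were printed on slides so no solution concentration is given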;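 further: a binder raises fluorescence above local background on the spot; about 2 pmol printed per array spot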
Target sequence (P47928 whole entry, looked up): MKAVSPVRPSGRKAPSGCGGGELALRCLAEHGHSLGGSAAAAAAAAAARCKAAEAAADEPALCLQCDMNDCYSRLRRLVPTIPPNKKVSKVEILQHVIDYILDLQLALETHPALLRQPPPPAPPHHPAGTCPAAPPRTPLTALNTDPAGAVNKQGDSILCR
Calls only; i = inactive.

SMILES | ID4 SMM
COC(=O)COc1cccc(NC(=O)c2cccc(C)c2)c1 | i
O=C(O)C1=C[C@@H](c2ccc3c(c2)Cc2ccccc2-3)C[C@@H](OCCCCO)O1 | i
CNC[C@H]1Oc2ncc(-c3ccccc3C)cc2C(=O)N([C@@H](C)CO)C[C@H]1C | i
COc1cc(SC)ccc1C(=O)NCCCn1ccnc1 | i
C[C@@H]1CN([C@@H](C)CO)C(=O)c2cc(-c3ccccc3)cnc2O[C@@H]1CN(C)C(=O)c1ccccc1F | i
Cc1ccc(NC(=O)COc2ccccc2)c(NC(=O)c2ccccc2I)c1 | i
O=C(Nc1ccc(S(=O)(=O)NCC2CCCO2)cc1)C1CCCO1 (centres undefined) | i
O=C(C[C@H]1C[C@H]2c3cc(NC(=O)Nc4ccc(C(F)(F)F)cc4)ccc3O[C@H]2[C@H](CO)O1)NCc1cc(F)ccc1F | i
CCCC#Cc1cnc2c(c1)C(=O)N([C@H](C)CO)C[C@H](C)[C@@H](CN(C)C(=O)C1CCC1)O2 | i
Cc1cccc(CN(C)C[C@@H]2OCc3cnnn3CCCC(=O)N([C@@H](C)CO)C[C@@H]2C)c1 | i
C[C@H]1CN([C@@H](C)CO)C(=O)CCCn2cc(nn2)CO[C@H]1CN(C)Cc1ccccc1C(F)(F)F | i
O=C(C[C@@H]1CC[C@@H](NS(=O)(=O)c2ccc(F)cc2)[C@@H](CO)O1)NCc1ccc(Cl)c(Cl)c1 | i
COc1ccc(-c2cnc3c(c2)C(=O)N([C@@H](C)CO)C[C@H](C)[C@@H](CN(C)S(=O)(=O)c2ccc(OC)cc2)O3)cc1 | i
O=C(C[C@H]1C[C@H]2c3cc(NC(=O)C4CCC4)ccc3O[C@H]2[C@@H](CO)O1)NCc1ccc2c(c1)OCO2 | i
COc1ccc2c(c1OC)C(=O)OC2[C@H]1c2c(cc3c(c2OC)OCO3)CCN1C (some centres undefined) | i
Cn1ncc(C#N)c1NC(=O)C1CC(c2c(F)cccc2Cl)=NO1 (centres undefined) | i
Cc1cc(Cl)c(OCCCSc2nc(C)cc(=O)[nH]2)c(Br)c1 | i
CCOc1ccccc1NC(=O)Cc1coc2ccc(C)cc12 | i
O=C(CSc1nnnn1-c1ccccc1)Nc1ccc(Br)cc1F | i
COC(=O)c1cc(NC(=O)CSc2nc(C)nc3sc4c(c23)CCC4)cc(C(=O)OC)c1 | i
NC(=O)c1ccccc1NC(=O)CS(=O)(=O)Cc1ccccc1 | i
CS(=O)(=O)N(CC(=O)Nc1ccc(F)cc1F)c1ccc2c(c1)OCCO2 | i
Cc1c(Br)c([N+](=O)[O-])nn1CC(=O)NCc1ccccc1 | i
COC(=O)COc1cc(Cl)c(C2NC(=S)NC(c3ccccc3)=C2C(C)=O)cc1OC (centres undefined) | i
CCNC(=O)CN(c1ccc(Br)c(C)c1)S(C)(=O)=O | i
C/C=C/c1cnc2c(c1)C(=O)N([C@@H](C)CO)C[C@H](C)[C@H](CN(C)Cc1cccc(C(=O)O)c1)O2 | i
CC(=O)N(C)C[C@H]1Oc2ncc(C#Cc3ccccc3F)cc2C(=O)N([C@@H](C)CO)C[C@H]1C | i
CN(C)CC(=O)N1[C@H](C#N)[C@@H](c2ccc(/C=C/c3ccccc3)cc2)[C@H]1CO | i
CC(C)C#Cc1cnc2c(c1)C(=O)N([C@H](C)CO)C[C@H](C)[C@@H](CN(C)C(=O)C1CCC1)O2 | i
CCn1c(SCC(=O)Nc2ccccc2N2CCOCC2)nnc1-c1ccccc1O | i
C/C=C/c1ccc2c(c1)O[C@H](CN(C)CCC)[C@H](C)CN([C@H](C)CO)S2(=O)=O | i
C[C@@H]1CN([C@H](C)CO)C(=O)c2cc(-c3cccc(F)c3)cnc2O[C@H]1CN(C)CC1CCCC1 | i
Clc1ccc(COC(Cn2ccnc2)c2ccc(Cl)cc2Cl)c(Cl)c1 (centres undefined) | i
O=C(NCC[C@@H]1CC[C@@H](NC(=O)C2CCCC2)[C@@H](CO)O1)c1ccc(F)cc1 | i
Cc1ccc(Oc2ccc(NC(=O)CCCC(=O)O)cc2)cc1C | i
CN(c1ccc(C(=O)NCc2cccnc2)cc1)S(C)(=O)=O | i
C[C@@H]1CN([C@H](C)CO)C(=O)c2cc(C#CCN(C)C)cnc2O[C@H]1CN(C)S(=O)(=O)c1cn(C)cn1 | i
CN(C)C(=O)C[C@@H]1C=C[C@H](NC(=O)c2ccc(F)cc2)[C@@H](CO)O1 | i
O=C(COc1ccccc1)Nc1ccc2oc(-c3cccc(I)c3)nc2c1 | i
CC(C)C#Cc1cnc2c(c1)C(=O)N([C@H](C)CO)C[C@H](C)[C@@H](CN(C)C(=O)CC1CC1)O2 | i
OCc1ccccc1O | i
CC1CCCC(C)N1S(=O)(=O)c1ccc(NC(=O)CCn2cnc3ccccc3c2=O)cc1 (centres undefined) | i
COCC#Cc1cnc2c(c1)C(=O)N([C@@H](C)CO)C[C@H](C)[C@H](CN(C)Cc1ccc(F)cc1)O2 | i
O=C(O)CSc1nnc(C2CC2)n1-c1ccccc1 | i
Cc1cc(C)cc(NC(=O)CSc2nnc(-c3ccncc3)n2-c2ccccc2)c1 | i
CN(CC(=O)Nc1ccc(F)cc1)S(=O)(=O)c1ccccc1 | i
COc1ccc([Si](C)(C)[C@@H]2[C@@H](CC(=O)N3Cc4ccccc4C[C@H]3CO)O[C@]3(C(=O)N(Cc4ccc(I)cc4)c4ccccc43)[C@H]2C)cc1 | i
C[C@@H](O)C#Cc1ccc2c(c1)O[C@H](CN(C)CC1CCOCC1)[C@@H](C)CN([C@@H](C)CO)S2(=O)=O | i
CNC[C@H]1Oc2cc(C#CC(C)C)ccc2S(=O)(=O)N([C@@H](C)CO)C[C@@H]1C | i
COc1ccc(-c2nnc(SCc3ccc([N+](=O)[O-])c(OC)c3)n2-c2ccccc2)cc1 | i
C[C@]12C=CC(=O)C=C1CC[C@@H]1[C@@H]2[C@@H](O)C[C@@]2(C)[C@H]1CC[C@]2(O)C(=O)CO | i
CNC[C@@H]1Oc2ncc(Br)cc2C(=O)N([C@@H](C)CO)C[C@@H]1C | i
CCn1nc(C)c(N=Cc2ccc(N(C)C)c(Br)c2)c1C | i
C[C@H]1CN([C@@H](C)CO)C(=O)c2cc(C#CC3CCCC3)cnc2O[C@@H]1CN(C)C(=O)C1CCC1 | i
C[C@H]1CN([C@@H](C)CO)C(=O)c2cc(C#CCc3ccccc3)cnc2O[C@H]1CN(C)Cc1ccccn1 | i
CCOC(=O)c1ccc2[nH]c(C)c(CN3CCN(C)CC3)c(=O)c2c1 | i
C=CCN1C(=O)[C@@]2(O[C@@H](CCn3cc(CCO)nn3)[C@H]([Si](C)(C)c3ccc(OC)cc3)[C@H]2C)c2cc(N3C(=O)c4cccc5cccc3c45)ccc21 | i
Cc1ccc(OCC(=O)Nc2ccccc2-c2nc3ccccc3s2)cc1C | i
Cc1ccc(NC(=O)CSc2nnc(N)s2)c(Br)c1 | i
CCCNC(=O)C[C@@H]1C[C@@H]2c3cc(N(C)C)ccc3O[C@@H]2[C@H](CO)O1 | i

Reformatted: entries from further up.
SMILES	ID4 SMM
O=C(O)C1=C[C@@H](c2ccc3c(c2)Cc2ccccc2-3)C[C@@H](OCCCCO)O1	i
CNC[C@H]1Oc2ncc(-c3ccccc3C)cc2C(=O)N([C@@H](C)CO)C[C@H]1C	i
COc1cc(SC)ccc1C(=O)NCCCn1ccnc1	i
C[C@@H]1CN([C@@H](C)CO)C(=O)c2cc(-c3ccccc3)cnc2O[C@@H]1CN(C)C(=O)c1ccccc1F	i
Cc1ccc(NC(=O)COc2ccccc2)c(NC(=O)c2ccccc2I)c1	i
O=C(Nc1ccc(S(=O)(=O)NCC2CCCO2)cc1)C1CCCO1 (centres undefined)	i
O=C(C[C@H]1C[C@H]2c3cc(NC(=O)Nc4ccc(C(F)(F)F)cc4)ccc3O[C@H]2[C@H](CO)O1)NCc1cc(F)ccc1F	i
CCCC#Cc1cnc2c(c1)C(=O)N([C@H](C)CO)C[C@H](C)[C@@H](CN(C)C(=O)C1CCC1)O2	i
Cc1cccc(CN(C)C[C@@H]2OCc3cnnn3CCCC(=O)N([C@@H](C)CO)C[C@@H]2C)c1	i
C[C@H]1CN([C@@H](C)CO)C(=O)CCCn2cc(nn2)CO[C@H]1CN(C)Cc1ccccc1C(F)(F)F	i
O=C(C[C@@H]1CC[C@@H](NS(=O)(=O)c2ccc(F)cc2)[C@@H](CO)O1)NCc1ccc(Cl)c(Cl)c1	i
COc1ccc(-c2cnc3c(c2)C(=O)N([C@@H](C)CO)C[C@H](C)[C@@H](CN(C)S(=O)(=O)c2ccc(OC)cc2)O3)cc1	i
O=C(C[C@H]1C[C@H]2c3cc(NC(=O)C4CCC4)ccc3O[C@H]2[C@@H](CO)O1)NCc1ccc2c(c1)OCO2	i

Continuation:
SMILES | ID4 SMM
Cc1cc(C)c(S(=O)(=O)NCC(=O)Nc2ccc(Br)cc2)c(C)c1 | i
CN(C)C(=O)C[C@H]1CC[C@@H](NC(=O)c2ccc(F)cc2)[C@@H](CO)O1 | i
COc1ccc(CCNC(=O)c2cc(-c3ccccn3)nc3c(Cl)cccc23)cc1OC | i
NC(=O)CSc1nnc(-c2ccco2)n1-c1ccccc1 | i
C[C@@H]1CN([C@@H](C)CO)C(=O)c2cc(C#CCC3CCCC3)cnc2O[C@@H]1CN(C)C(=O)CN(C)C | i
O=C(NCCc1nc2ccccc2[nH]1)c1ccc(-c2ccccc2)cc1 | i
COc1ccccc1NC(=O)c1ccc(NS(=O)(=O)c2cccc3cccnc23)cc1 | i
O=C1CC(C(=O)Nc2ccc(C(=O)O)c(O)c2)C(c2ccccc2)O1 (centres undefined) | i
CC(C)c1cn(CC[C@@H]2CC[C@@H](NC(=O)C3CCCCC3)[C@@H](CO)O2)nn1 | i
CNC[C@@H]1Oc2cc(C#CCC(C)C)ccc2S(=O)(=O)N([C@@H](C)CO)C[C@H]1C | i
O=C(NCc1cccnc1)C1CC(c2ccccc2O)=NO1 (centres undefined) | i
CCC(=O)N[C@H]1C=C[C@@H](CC(=O)NCc2ccccc2OC)O[C@H]1CO | i
O=C(C[C@H]1CC[C@@H](NS(=O)(=O)c2ccc(F)cc2)[C@@H](CO)O1)NCc1ccc(Cl)c(Cl)c1 | i
CC(C)(C)C1CCc2nc(N)c3c(=O)oc4ccccc4c3c2C1 (centres undefined) | i
CS(=O)(=O)N(CC(=O)Nc1ccc(F)c(F)c1)c1ccccc1Cl | i
CCCNC(=O)N(C)C[C@H]1Oc2cc(C#Cc3ccccn3)ccc2S(=O)(=O)N([C@H](C)CO)C[C@@H]1C | i
O=C(NC1CCCCC1)N[C@@H]1CC[C@H](CC(=O)N2CCOCC2)O[C@@H]1CO | i
Cc1sc2nc(SCC(=O)NCC3CCCO3)n(-c3ccc(F)cc3)c(=O)c2c1C (centres undefined) | i
CN(C)C(=O)C[C@@H]1C[C@@H]2c3cc(NC(=O)C4CCC4)ccc3O[C@@H]2[C@@H](CO)O1 | i
Cc1cc(=O)c2c(O)c3c(cc2o1)OC(C(C)(C)OC1OC(CO)C(O)C(O)C1O)C3 (centres undefined) | i
CCCNC(=O)N(C)C[C@H]1Oc2cc(C#Cc3ccccn3)ccc2S(=O)(=O)N([C@@H](C)CO)C[C@@H]1C | i
COc1cccc(NC(=O)CSc2nnc(-c3ccncc3)n2-c2ccc(Br)cc2)c1 | i
Cc1cc(C)cc(OCC(=O)Nc2cccc(-c3nnc(-c4ccco4)o3)c2)c1 | i
O=C(C[C@@H]1CC[C@@H](NC(=O)C2CCC2)[C@H](CO)O1)NCC1CC1 | i
COc1ccc(OC)c(S(=O)(=O)N(C)CC(=O)N2CCCCC2)c1 | i
CC1C2CC(CC1(C)C)N(C(=O)c1ccc(N3C(=O)c4ccccc4C3=O)cc1)C2 (centres undefined) | i
COc1ccc(CC(=O)N2N=C(C)CC2(O)C(F)(F)F)cc1 (centres undefined) | i
CS(=O)(=O)N(CC(=O)Nc1ccccc1Sc1ccccc1)c1ccc(Cl)c(Cl)c1 | i
Cc1nc(-c2ccccc2)sc1C(=O)C1C(=O)C(=O)N(CCN(C)C)C1c1ccc(Cl)cc1 (centres undefined) | i
COc1ccccc1NC(=O)N[C@H]1C=C[C@H](CC(=O)N[C@H](C)c2ccccc2)O[C@H]1CO | i
C[C@H](CO)N1C[C@H](C)[C@H](CN(C)Cc2ccccn2)Oc2ncc(C#CCc3ccccc3)cc2C1=O | i
O=C1C(=O)N(CC2CCCO2)C(c2cccc(Oc3ccccc3)c2)C1C(=O)c1ccco1 (centres undefined) | i
Cc1ccccc1CN(C)C[C@@H]1OCc2cn(nn2)CCCC(=O)N([C@@H](C)CO)C[C@H]1C | i
C[C@@H]1CN([C@H](C)CO)C(=O)Cc2cc(NC(=O)C3CC3)ccc2O[C@@H]1CN(C)CC1CC1 | i
Cc1cc(CC(=O)O)n(C)c1C(=O)c1ccc(Cl)cc1 | i
CN(C)c1nc(SCC(N)=O)nc(N(C)C)n1 | i
COCCOC(=O)N1C(=O)[C@@]2(c3ccccc31)[C@H](C(=O)NC[C@H](O)c1ccccc1)[C@H]1C(=O)O[C@H](c3ccccc3)[C@H](c3ccccc3)N1[C@@H]2c1ccc(OCCO)cc1 | i
O=C(O)c1cccc(NS(=O)(=O)c2cccc(C(=O)Nc3ccc(F)cc3)c2)c1 | i
C[C@@H]1CN([C@H](C)CO)C(=O)c2cc(-c3ccc(F)cc3)cnc2O[C@H]1CN(C)CC1CCCC1 | i
COc1cccc(-c2ccc3c(c2)O[C@@H](CN(C)Cc2cccnc2)[C@H](C)CN([C@H](C)CO)S3(=O)=O)c1 | i
O=C(COc1cccc2ccccc12)Nc1cc([N+](=O)[O-])ccc1O | i
Cc1nn(Cc2cccc(Oc3ccccc3)c2)c(C)c1NC(=O)c1nc2ncccn2n1 | i
N#CCc1ccc(NC(=O)CN2C(=O)c3ccccc3S2(=O)=O)cc1 | i
CNC[C@@H]1Oc2ncc(-c3ccc(C)cc3)cc2C(=O)N([C@@H](C)CO)C[C@@H]1C | i
O=C(Cc1ccccc1)N[C@H]1CC[C@H](CC(=O)N2CCCCC2)O[C@H]1CO | i
CC(=O)c1cccc(-n2c(CCC(=O)O)ccc2-c2ccc(Br)cc2)c1 | i
CC1OCN(c2ccc(OC(F)(F)F)cc2)Cn2c1nc1ccc(Cl)cc12 (centres undefined) | i

Screening data from PubChem BioAssay.

An excerpt, so the mix of outcomes need not match the whole.
